# Compound activity from PubChem BioAssay.
# LT uptake inh – blocks cellular internalization of anthrax lethal toxin | hit rate 0.67% among 70,000 | Cells, anthrax lethal toxin internalization, FRET ratio (460/530) | Potency, µM (top dose mostly 40 µM), for inactives: at the highest dose activity change, negative = inhibition, actives largely listed as inhibitors; active = well fitted falling ratio curve with the 530 nm signal flat; inconclusive = other ratio curves, or a change in one channel alone; inactive = flat curves in the ratio and both channels; the % refers to the ratio; note: % is set by controls: 0 for no effect and ±100 for the full control effect; nearly all actives have a fitted effect of over 50% in size; tested in ME-180 cells; beta-lactamase reporter
# SmPrx2 inh – Schistosoma mansoni Prx2 inhibition; AID 448; S. mansoni Prx2 activity coupled to TGR/GSH (TGR is thioredoxin glutathione reductase), NADPH fluorescence loss, qHTS; some inactives read as strong as hits; Potency, µM; hit rate 0.07% among 65,000; active means full or partial inhibition curve with a strong effect at the top dose; inconclusive means weaker partial or single-point curve; inactive means no accepted curve; note: series up to 57 µM; many of its hits are not listed in these tables
#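 Prx2 activity was followed as the loss of NADPH fluorescence (ex 365/em 450 nm), read every 30 sec for 8 min after H2O2 start. The enzyme mix (50 nM Prx2, 25 nM TGR, GSH, NADPH; pH 7.4 phosphate buffer) was incubated with compound for 15 min at room temperature first.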
# * marks the source's active call; other numbers are inactive results; ? = inconclusive; / = not tested or not shown; & = joins results of further samples; [ ] = dose if it differs, or a comment. Potency is the fitted concentration of half-maximal effect. Not all compounds are listed; the hit share may differ from the screen's.
# Second line of a record – LT uptake inh | SmPrx2 inh
> Cc1nc2c([nH]1)c(=O)n(C)c(=O)n2Cc1ccco1
  11% | >57
> CCCCOC(=O)c1ccc(N)cc1
  -4% | >57
> CC[C@H]1C(=O)OC[C@@H]1Cc1cncn1C
  -8% | >57
> COc1c(O)cc2c(c1O)[C@@H]1O[C@@H](CO)[C@@H](O)[C@@H](O)[C@@H]1OC2=O
  -5%[3.58 µM] | >57
> Cc1oncc1C(=O)Nc1ccc(C(F)(F)F)cc1
  -6% | >57&>57
> CN1CCN(c2c(F)cc3c(=O)c(C(=O)O)cn4c3c2SCC4)CC1
  -8% | >57
> CN1CCC(=C2c3ccccc3CC(=O)c3sccc32)CC1
  ? | >26&>57&>57
> C[C@@H]1[C@H](C)CC[C@@]2(C(=O)O[C@H]3O[C@@H](CO[C@H]4O[C@@H](CO)[C@@H](O[C@H]5O[C@@H](C)[C@@H](O)[C@@H](O)[C@@H]5O)[C@@H](O)[C@@H]4O)[C@@H](O)[C@@H](O)[C@@H]3O)CC[C@]3(C)C(=CC[C@H]4[C@@]5(C)C[C@@H](O)[C@@H](O)[C@](C)(CO)[C@@H]5CC[C@@]43C)[C@@H]12
  -11%[3.58 µM] | >57
> CN(C)CCO[C@](C)(c1ccccc1)c1ccccn1
  -1%[3.58 µM] | >57&>57
> NC(=O)c1ccc(-c2nc(-c3ccc4c(c3)OCO4)c(-c3ccccn3)[nH]2)cc1
  ? | >26
> CN1CCN(CCCN2c3ccccc3Sc3ccc(S(=O)(=O)N(C)C)cc32)CC1
  12%[3.58 µM] | >57
> O=C(NCCN1CCOCC1)c1ccc(Cl)cc1
  -13% | >57
> O=C(O)CCCCCCCC(=O)O
  5% | >26
> O=C(O)[C@@H]1[C@@H]2C[C@H]3c4[nH]c5ccccc5c4CCN3C[C@@H]2CC[C@@H]1O
  ? | >57&>57
> C[C@H]1C[C@@H]2[C@H]3CCC4=CC(=O)C=C[C@@]4(C)[C@@]3(Cl)[C@@H](O)C[C@]2(C)[C@]1(OC(=O)c1ccco1)C(=O)CCl
  5%[3.58 µM] | >57

# Looked up above.
# SmPrx2 inh, `CN1CCC(=C2c3ccccc3CC(=O)c3sccc32)CC1` : >26&>57&>57
# LT uptake inh, `Cc1oncc1C(=O)Nc1ccc(C(F)(F)F)cc1` : -6%
# LT uptake inh, `O=C(O)CCCCCCCC(=O)O` : 5%
# SmPrx2 inh, `CN(C)CCO[C@](C)(c1ccccc1)c1ccccn1` : >57&>57
# SmPrx2 inh, `CCCCOC(=O)c1ccc(N)cc1` : >57

# Other records follow:
# Second line of a record – LT uptake inh | SmPrx2 inh
> Nc1cc(=O)[nH]c(N)n1
  ? | >57&>57
> COc1ccc([C@@H]2CNC(=O)C2)cc1OC1CCCC1
  ? | >57&>57&>57&>57&>57
> Oc1ccc([C@@H]2CNCCc3c2cc(O)c(O)c3Cl)cc1
  ? | >57&>57
> CCOC(=O)Nc1ccc(NCc2ccc(F)cc2)nc1N
  6% | ?
> CCN(CC)CCOC(=O)C(c1ccccc1)c1ccccc1
  ? | >57
> CCCc1cc(C(N)=S)ccn1
  -11% | >57
> CCN(CCCCOC(=O)c1ccc(OC)c(OC)c1)[C@@H](C)Cc1ccc(OC)cc1
  -1%[3.58 µM] | >57
> C[C@@]12CCC(=O)C=C1CC[C@H]1[C@H]3CC[C@](O)(C(=O)CO)[C@]3(C)CC[C@@H]12
  13% | >57
> O=C1CCc2cc(OCCCCc3nnnn3C3CCCCC3)ccc2N1
  ? | >57&>57
> CC(C)(C(=O)c1cccnc1)c1cccnc1
  -2%[3.58 µM] | >57
> CC(C)[C@@H]1C(=O)N(S(C)(=O)=O)[C@H]2CCN(C(=O)/C=C\CN3CCCCC3)[C@@H]12
  ? | >57
> CCCN(CCC)C(=O)[C@@H](CCC(=O)O)NC(=O)c1ccccc1
  1%[3.58 µM] | >57&>57
> COc1cc(C)nc(-n2nc(C)cc2OC)n1
  -7%[3.58 µM] | >57
> CC1(C)Oc2ccc(C#N)cc2[C@H](N2CCCC2=O)[C@H]1O
  ? | >57&>57
> C[C@@H](Cc1cccc(C(F)(F)F)c1)NCCOC(=O)c1ccccc1
  2%[3.58 µM] | >57

# Fetched one by one from the list above:
# Second line of a record – LT uptake inh | SmPrx2 inh
> CN1CCC(=C2c3ccccc3CC(=O)c3sccc32)CC1
  ? | >26&>57&>57
> CN1CCN(c2c(F)cc3c(=O)c(C(=O)O)cn4c3c2SCC4)CC1
  -8% | >57

# Later entries:
# Second line of a record – LT uptake inh | SmPrx2 inh
> Cc1cc(O)c2c(c1)C(=O)c1cccc(O)c1C2=O
  -2% | /
> CCn1cc(C(=O)O)c(=O)c2cc(F)c(N3CCN[C@@H](C)C3)c(F)c21
  0%[3.58 µM] | >57&>57
> CCOC(=O)Nc1ccc2c(c1)N(C(=O)CCN1CCOCC1)c1ccccc1S2
  -13% | >57&>57
> COc1cc(C(=O)NCCCCCC(=O)O)cc(OC)c1OC
  0% | >57

# In the list so far, 2 have a furan ring, fused or not.
# Second line of a record – LT uptake inh | SmPrx2 inh
> Cc1nc2c([nH]1)c(=O)n(C)c(=O)n2Cc1ccco1
  11% | >57
> C[C@H]1C[C@@H]2[C@H]3CCC4=CC(=O)C=C[C@@]4(C)[C@@]3(Cl)[C@@H](O)C[C@]2(C)[C@]1(OC(=O)c1ccco1)C(=O)CCl
  5%[3.58 µM] | >57

# Rewritten as labelled records: part of the list above.
CCn1cc(C(=O)O)c(=O)c2cc(F)c(N3CCN[C@@H](C)C3)c(F)c21
- LT uptake inh: 0%[3.58 µM]
- SmPrx2 inh: >57&>57
CCOC(=O)Nc1ccc2c(c1)N(C(=O)CCN1CCOCC1)c1ccccc1S2
- LT uptake inh: -13%
- SmPrx2 inh: >57&>57
